Assay outcomes (PubChem BioAssay)
RanGTP-Impb inh = disruptors of Ran-importin-beta complex formation – biochemical, FRET, CFP-Ran, YFP-importin-beta, homogeneous, primary screen; cell-free CFP-Ran/YFP-importin-beta FRET ratio; inhibition, % (test concentration not listed); actives 1.1% (n = 300,000); AID 2216;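 active means most replicates above 15%; inconclusive means exactly half above 15%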;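 further: 0% = DMSO wells and 100% = Ran loaded with GDP instead of GTP; wells of about 40 µL received 100 nL stock; the first replicate is given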
HNF4A DNA FP = change in binding of human HNF4 alpha to DNA. P41235. HNF4a-FITC DNA binding, fluorescence polarization, 1 h. activity change, % at 10 µM. actives 0.3% (n = 360,000); in the data active means activity change above about 30%, passing the limit was not always enough;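 further: controls were the assay level and a saturating level of protein; the project sought stronger binding though the title names inhibitors; some compounds called inactive have numbers as strong as hits; positive values seem to mean higher polarization but the record does not say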
Target sequence (P41235 whole entry, looked up): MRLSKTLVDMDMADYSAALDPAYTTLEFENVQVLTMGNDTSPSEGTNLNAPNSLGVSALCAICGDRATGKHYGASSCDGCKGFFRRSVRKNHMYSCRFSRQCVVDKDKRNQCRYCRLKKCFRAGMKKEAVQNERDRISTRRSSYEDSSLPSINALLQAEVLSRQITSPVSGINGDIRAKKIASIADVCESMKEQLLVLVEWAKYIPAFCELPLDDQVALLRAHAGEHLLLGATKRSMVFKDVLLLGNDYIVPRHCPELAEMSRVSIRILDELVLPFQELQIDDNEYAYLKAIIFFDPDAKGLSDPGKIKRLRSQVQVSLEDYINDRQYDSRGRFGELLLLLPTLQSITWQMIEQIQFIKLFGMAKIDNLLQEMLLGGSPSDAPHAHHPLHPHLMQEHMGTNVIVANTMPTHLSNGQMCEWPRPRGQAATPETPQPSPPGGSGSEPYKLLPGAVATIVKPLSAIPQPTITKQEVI
FGF22 binding = shifts melting point of recombinant human FGF22; Q9HCT0; recombinant FGF22 thermal shift, SYPRO orange fluorescence; percent of sucrose octasulfate shift, DMSO zero; calls only at 9.99 µM; actives 1.5% (n = 340,000); AID 651658;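 active means melting point raised past a set limit in the mean and every replicate; inconclusive means no clear call; three in four hits are not shown here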
Target sequence (Q9HCT0 whole entry, looked up): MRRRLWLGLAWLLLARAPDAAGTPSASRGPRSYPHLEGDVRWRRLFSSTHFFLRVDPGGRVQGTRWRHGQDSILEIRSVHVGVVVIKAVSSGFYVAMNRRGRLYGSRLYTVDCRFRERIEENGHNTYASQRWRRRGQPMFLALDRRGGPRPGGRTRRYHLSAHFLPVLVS
AF4-AF9 inh = inhibitors of human MLL-AF4/AF9 interaction. inhibition, % at 10 µM. AlphaScreen, biotin-AF4 peptide binding to FLAG-AF9. actives 0.47% (n = 350,000);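 active means every replicate reaching a set inhibition limit, whatever the replicate mean, cut at about 25% in these data; inconclusive means mean inhibition reaches that limit but some replicates miss it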;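 further: 0% = plate neutral control median and 100% = total signal loss; the record names both 10 and 1 µM as test concentration; the first replicate is given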
E coli growth = E. coli growth inhibition; Escherichia coli growth, OD600, 23 h; hits give low values; OD600 absorbance (test concentration not listed); actives 0.21% (n = 330,000); AID 1053175;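 active means OD600 absorbance below the run mean of sample wells minus 3.6 SD, in any replicate, cut at about 0.56 in these data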;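 further: stock transfer was 300 nL into about 60 µL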
UCH37 DUB inh = human UCH37 deubiquitinating enzyme inhibition; Q9Y5K5; purified proteasome/UCH37, Ub-AMC cleavage fluorescence; inhibition, % (test concentration not listed); actives 0.33% (n = 330,000);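 active means mean of two replicates above 20%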;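 further: 0% = compound-free wells with enzyme and 100% = wells lacking proteasome; stock transfer was 100 nL into about 20 µL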
Target sequence (Q9Y5K5 whole entry, looked up): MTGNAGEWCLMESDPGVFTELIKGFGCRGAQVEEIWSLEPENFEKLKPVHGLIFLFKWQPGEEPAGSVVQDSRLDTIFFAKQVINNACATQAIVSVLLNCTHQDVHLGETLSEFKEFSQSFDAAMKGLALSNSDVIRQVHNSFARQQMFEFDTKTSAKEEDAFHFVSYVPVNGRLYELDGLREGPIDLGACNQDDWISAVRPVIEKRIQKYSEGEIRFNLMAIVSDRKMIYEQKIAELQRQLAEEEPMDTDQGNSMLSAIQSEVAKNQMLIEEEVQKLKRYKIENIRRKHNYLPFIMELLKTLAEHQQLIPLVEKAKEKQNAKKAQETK
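Assay system: Proteasome-bound UCH37. Buffer or medium: pH 7.4 Tris-HCl (50 mM) with ovalbumin, ATP-MgCl2, DTT. Incubation: 30 min preincubation with enzyme, 25 min cleavage at room temperature. Measured by: fluorescence, ex 355 nm, em 460 nm. Read-out basis: percent inhibition. Control set: wells without proteasome as full block, compound-free enzyme plus substrate as uninhibited.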
Vif A3G = HIV-1 Vif–A3G interaction blockers – biochemical, TR-FRET, GST-Vif 1-94, biotin-A3G peptide, dose response retest, primary screen (AID 1117319) | inhibition, %, or IC50 in µM where a hit was titrated | actives 0.57% (n = 260,000) | TR-FRET GST-Vif / biotin-A3G peptide binding; higher % means a stronger effect; test concentration not given here; strong numbers were not always called active;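 active means above the screen mean plus three standard deviations and confirmed in dose response; inconclusive means results disagree or hit not tested in dose response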;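 further: Vif residues 1-94 fused to GST binding biotinylated APOBEC3G peptide 110-148; 0% = full assay without inhibitor and 100% = GST in place of GST-Vif; retest series ran down from 100 µM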
* = called active by the depositor; i = inactive; ? = inconclusive; · = no result given; & = joins results of further samples. The list is partial; the hit share may differ from the screen's.

SMILES	RanGTP-Impb inh	HNF4A DNA FP	FGF22 binding	AF4-AF9 inh	E coli growth	UCH37 DUB inh	Vif A3G
CCc1sc(C(=O)Nc2ncccc2O)cc1C	-1.7	1.2	·	1.3	0.64	5.8	·
Cc1ccccc1C(=O)Nc1ccnn1C1CCN(Cc2cnn(C)c2)CC1	-2.4	-0.5	i	0.3	0.68	1.0	3%
O=C1CN(C(=O)N[C@@H](Cc2ccccc2)C(=O)N[C@@H](C(=O)O)c2ccccc2)c2ccccc2N1	0.4	1.2	i	-0.2	0.66	0.0	·
Cn1cnc2cc(NCc3ccc(Cl)cc3)ccc21	5.9	-1.7	i	12	0.65	-14	·
Cc1cc(C)n2c(SCC(=O)NC3CCCCC3C)nnc2n1 (stereo unspecified)	4.8	0.1	i	-3.9	0.68	0.7	-6%
COc1ccc(NC(=O)O/N=C/c2ccc(Br)cc2)cc1	-3.8	2.6	i	-1.2	·	·	·
COc1ccc(-n2c(SCC(=O)Nc3ccc4c(c3)OCO4)nc3ccccc3c2=O)cc1	-5.0	1.6	·	·	0.77	3.2	-3%
CCC(C(=O)OCC(=O)NC(=O)c1ccccc1)c1ccccc1 (stereo unspecified)	·	-0.3	i	-3.2	0.71	2.7	2%
O=C(CNC(=O)c1ccc(Br)cc1)NCc1cccnc1	2.3	0.5	i	3.8	0.68	7.9	·
Oc1[nH]c2ccccc2c1N=Nc1ncnc2c1oc1ccccc12	-5.7	·	i	-4.1	0.71	7.6	0%
C=CCNc1nc(N)c([N+](=O)[O-])c(NCCO)n1	-1.0	-2.7	i	·	0.64	17	5%
COC(=O)c1[nH]c2cc(OC)c(OC)cc2c1NC(=O)Oc1ccccc1	-69	2.4	·	·	0.76	-60	15%
Cc1cc(-c2nn(-c3ccccc3F)cc2CN2CCCC(O)C2)c(C)s1 (stereo unspecified)	1.2	6.6	i	3.0	0.66	1.3	-5%
CCOC(=O)[C@]12CCCC=C1N(Cc1ccc3c(c1)OCO3)C(=O)[C@H](CC(=O)N1CCSCC1)C2	·	2.4	i	1.4	·	·	·
CCCc1cc(C(=O)OC)c2ccccc2n1	2.8	2.6	·	·	0.69	-1.6	-2%
Cc1ccccc1C(=O)c1cccn1CC(=O)NCc1ccc(Cl)cc1	5.9	-0.5	i	-0.4	0.69	0.7	-5%
Cc1ccc(NC2=NC(c3ccccc3)n3c(nc(C)cc3=O)N2)cc1 (stereo unspecified)	-13	4.8	·	·	0.7	5.3	-8%
Clc1ccc(N2N=C(c3cccs3)CC2c2ccco2)cc1 (stereo unspecified)	9.7	4.3	·	·	0.8	i	1%
O=C(NNC(=O)c1ccccc1[N+](=O)[O-])c1csc(N2CCOCC2)n1	-4.5	2.4	i	-1.3	0.69	0.6	8%
O=C(COC(=O)c1ccc(Br)o1)NCCCc1ccccc1	8.4	-1.8	·	·	0.73	0.2	-6%
COc1cc2nc(-c3ccccc3C)oc(=O)c2cc1OC	-0.9	-2.4	i	-4.1	0.62	0.3	·
O=C(NCc1ccc(Cl)c(Cl)c1)c1cc(C2CCCCN2C(=O)c2ccccc2)on1 (stereo unspecified)	·	-1.4	i	-4.4	·	·	·
Cc1cc(Cl)ccc1N(CC(=O)NCc1ccc2c(c1)OCO2)S(C)(=O)=O	1.3	-3.4	i	0.1	0.66	-0.2	3%
CN1C(=O)[C@H]2[C@@H](C3CC3)N3C(=O)CN(CCO)C(=O)[C@@]3(Cc3ccccc3)[C@H]2C1=O	-1.0	0.1	i	3.7	·	-0.8	·
COc1cccc(C(C(=O)NC2CCCC2)N2CCN(c3cc(C)ccc3C)CC2)c1OC (stereo unspecified)	·	0.9	i	10	·	·	·

Next section:
SMILES	RanGTP-Impb inh	HNF4A DNA FP	FGF22 binding	AF4-AF9 inh	E coli growth	UCH37 DUB inh	Vif A3G
CC1(C(=O)NS(=O)(=O)c2ccccc2)CCN1C(=O)CC1CCCC1 (stereo unspecified)	·	0.6	i	-1.5	·	·	·
COc1ccc(-c2[nH]ncc2CNCCCSC)cc1F	-1.1	2.8	i	-6.1	0.69	0.1	-3%
CCOC(=O)c1cc2c(=O)n3ccccc3nc2n(Cc2ccco2)c1=NC(=O)c1ccc(OC)cc1	-1.5	2.6	i	-1.6	0.68	-116	27%
CCN(CC)C1=NS(=O)(=O)c2cc([N+](=O)[O-])ccc21	-3.5	5.9	i	-2.5	0.67	-2.9	1%
Cc1ccc(NS(=O)(=O)c2ccc(CCC(=O)O)cc2)cc1	5.3	-0.5	i	3.2	0.69	1.9	9%
CN1CCN(CC(=O)Nc2nc(-c3ccccc3)cs2)CC1	3.6	-0.4	·	·	0.67	4.9	1%
COc1ccc(OCCC(=O)OCC(=O)NCc2ccco2)cc1	-1.5	-9.7	·	·	0.69	5.4	29%
COCCNc1nc2c(S(=O)(=O)c3cc(C)ccc3C)nnn2c2ccccc12	0.3	-1.9	i	-1.1	0.73	-148	-258%
C=C1CCN([C@H](C(=O)OCc2cccc(C)c2)C(C)C)S(=O)(=O)c2ccccc21	3.5	2.6	i	-0.5	·	0.4	·
COc1ccc(CCNC(=O)CC(=O)N/N=C\c2ccc(OCC(N)=O)cc2)cc1OC	·	1.8	i	-0.3	·	·	·
Cc1cccc(N2CCN(S(=O)(=O)c3ccc4c(c3)CCC(=O)N4)CC2C)c1 (stereo unspecified)	-1.6	1.2	·	·	0.76	1.2	-1%
CCCCSC1=C(C#N)C(c2ccccc2C)C(C(=O)OCC)C(=O)N1 (stereo unspecified)	-0.9	-1.7	i	3.9	0.71	3.7	-3%
Cc1cccc(NC(=O)C(=O)NCc2ccccn2)c1	2.8	6.6	i	3.9	0.63	3.4	19%
CC(C)(C)c1ccc(OCC(=O)Nc2ccc(-c3nc4cccnc4o3)cc2)cc1	-1.8	1.8	·	·	0.76	-72	6%
CC(C)NCC(O)Cn1c2c(c3ccccc31)CCc1c-2cnn1-c1ccccc1 (stereo unspecified)	?	3.2	·	·	0.72	-100	6%&21%
CCc1ccc(NC(=O)c2cc(S(=O)(=O)N3CCCC3)ccc2F)cc1	·	2.0	i	-2.3	·	·	-6%
O=C(c1ccc2c(c1)OCO2)C1CCCN(C(=O)C2CCOCC2)C1 (stereo unspecified)	2.4	1.7	i	4.7	0.73	0.8	0%
COc1ccccc1C(=O)NCCC(=O)N(C)CC(=O)Nc1ccc(N2CCOCC2)cc1	-1.5	-0.1	i	0.2	0.63	-3.3	4%
CCOC(=O)c1c(N2CCN(c3ccccc3)CC2)cc(C)nc1C	-0.5	-2.6	i	4.1	0.66	1.6	·
c1ccc(-c2ccccc2OCCOCCN2CCNCC2)cc1	3.0	-3.3	i	-0.8	·	·	5%
COc1ccc(NC(=O)Nc2cccc3ccccc23)cc1S(N)(=O)=O	1.7	-0.9	i	-0.6	0.67	5.7	-4%
CNC(=O)Nc1cc(C)nn1C	-2.4	-1.6	i	-0.6	0.71	2.7	-10%
Cc1cc(C)cc(NC(=O)CC23CC4CC(C2)CC(n2nnc(C)n2)(C4)C3)c1	0.0	0.5	·	·	·	·	4%
CC(OC(=O)c1ccc2c(=O)n3c(nc2c1)CCCCC3)C(=O)Nc1ncc(Cl)cc1Cl (stereo unspecified)	0.0	1.6	i	1.9	0.61	3.1	-7%
Cc1cc(C)nc(N2CCCC(C(=O)NCc3ccccc3)C2)n1 (stereo unspecified)	0.9	2.5	·	·	0.71	-3.4	-7%

Other entries
SMILES	RanGTP-Impb inh	HNF4A DNA FP	FGF22 binding	AF4-AF9 inh	E coli growth	UCH37 DUB inh	Vif A3G
Cc1ccccc1Nc1nc(-c2cccnc2)cs1	1.9	2.1	i	1.5	0.67	0.0	·
O=C(CSc1ncccc1-c1nc2ccccc2[nH]1)Nc1ccc2c(c1)OCCO2	-0.4	15	·	·	0.66	-12	8%
CCc1nn(CC(=O)N2CC(C)CC(C)C2)c(=O)c2cccn12 (stereo unspecified)	0.3	0.0	i	2.2	0.72	1.8	·
CC(O)c1c(-c2ccccc2)nn(C)c1Cl (stereo unspecified)	-2.1	5.0	i	0.1	0.66	1.7	-14%
O=C1C2CC3N1CCC31c3ccccc3-n3c1c2ccc3=O (stereo unspecified)	·	-0.6	i	-3.2	·	·	-7%
Cn1nccc1C(=O)N1CCc2ccccc21	-1.1	3.6	·	·	0.74	1.8	0%
COc1ccc(-n2nnc3c(=O)n(C/C=C/c4ccccc4)cnc32)cc1	5.8	0.9	·	·	0.71	5.4	-4%
COC(=O)c1ccc(NC(=O)c2ccc3c(c2)C(=O)N(C)C3=O)cc1	-3.6	-2.2	i	-2.1	0.7	-23	·
COc1ccc(S(=O)(=O)N2CCC(C(=O)NCCC(=O)Nc3cccc(Cl)c3)CC2)cc1	0.1	3.9	i	-4.1	0.72	2.5	·
COc1ccc(CNC(=O)CSc2nnc3c(n2)[nH]c2ccc(C)cc23)cc1	-2.5	-18	i	3.5	0.7	-0.9	-10%
CC(C(=O)NC(=O)NC1CCCCC1)N1CCN(c2ccc(O)cc2)CC1 (stereo unspecified)	·	5.5	i	7.4	0.68	2.7	8%
CC(C)(C)c1oc(C(=O)O)cc1CN1CCOCC1	2.0	2.3	i	-5.9	0.7	-0.4	3%
Cc1onc(-c2c(Cl)cccc2Cl)c1C(=O)NCc1ccco1	0.2	-0.2	·	·	0.7	2.0	3%
COc1ccc(C(O)c2nc(/C=C/c3ccc(C(F)(F)F)cc3)cs2)cc1 (stereo unspecified)	·	-2.3	i	2.7	·	·	·
CCC(C(=O)NC1CCCC1)N(C(=O)Cn1nnc(-c2ccc(C)o2)n1)C(C)(C)C (stereo unspecified)	-4.6	-0.2	·	·	0.72	6.1	2%
COc1ccc(-c2cc(C(=O)NNC(=S)NC(=O)c3c(-c4ccccc4)noc3C)[nH]n2)cc1	5.2	2.4	i	1.4	0.66	-2.7	-1%
COc1ccc(C(=O)/C=C/Nc2cc(C)on2)cc1	-1.3	1.3	·	·	0.63	1.4	5%
COc1ccc(N(CC(=O)Nc2cccc(C(C)=O)c2)S(C)(=O)=O)cc1OC	1.1	-1.4	·	·	0.7	5.4	-5%
O=[N+]([O-])c1ccccc1/C=C/C=N/N1CCCCC1	3.2	2.7	i	26*	·	·	29%
C[C@@H](C(=O)NCC1CCCO1)N1C(=O)N2CCc3c([nH]c4ccccc34)[C@@]2(C)C1=O (stereo partly specified)	1.2	7.8	i	-0.5	0.65	1.2	·
CCOC(=O)C1(C)CCCN(C(=O)c2cccnc2SC)C1 (stereo unspecified)	·	2.5	i	-3.6	·	·	·
NC(=O)c1cccc2c(=O)oc3ccccc3c12	-1.8	-4.7	·	·	0.72	1.9	5%
S=C(N/N=C/c1ccc(Br)cc1)N1CCCCC1	2.9	5.0	i	-3.7	·	·	-4%
O=C(CCC(=O)N1CCOc2ccccc21)N1CCN(c2ccccc2)CC1	2.7	1.9	i	1.0	0.77	3.3	·

Arranged by count of non-hydrogen atoms (smallest number first): some entries from above
SMILES	RanGTP-Impb inh	HNF4A DNA FP	FGF22 binding	AF4-AF9 inh	E coli growth	UCH37 DUB inh	Vif A3G
NC(=O)c1cccc2c(=O)oc3ccccc3c12	-1.8	-4.7	·	·	0.72	1.9	5%
COC(=O)c1ccc(NC(=O)c2ccc3c(c2)C(=O)N(C)C3=O)cc1	-3.6	-2.2	i	-2.1	0.7	-23	·
CC(C(=O)NC(=O)NC1CCCCC1)N1CCN(c2ccc(O)cc2)CC1 (stereo unspecified)	·	5.5	i	7.4	0.68	2.7	8%
O=C(CSc1ncccc1-c1nc2ccccc2[nH]1)Nc1ccc2c(c1)OCCO2	-0.4	15	·	·	0.66	-12	8%
